Screens (PubChem)
ClpP mod = qHTS Assay for Activators of ClpP | ATP-dependent Clp protease proteolytic subunit (Bacillus subtilis (strain 168)), P80244 | purified B. subtilis ClpP, FRET peptide cleavage, 20 min | Potency, µM (series often up to 57.5 µM), for the others: top-dose activity change, negative = active | actives 1.9% (n = 340,000); active = well fitted falling curve with a large enough effect; inconclusive = small, poorly fitted or top-dose-only effect; inactive = no such curve, though single readings can be large or run the other way; note: potency is the fitted concentration of half-maximal effect; the source files actives as falling curves though it sought activators and does not explain the sign; nearly all actives have a fitted effect of over 65% in size; many hits overshoot -100%
Target sequence (P80244 whole entry, looked up): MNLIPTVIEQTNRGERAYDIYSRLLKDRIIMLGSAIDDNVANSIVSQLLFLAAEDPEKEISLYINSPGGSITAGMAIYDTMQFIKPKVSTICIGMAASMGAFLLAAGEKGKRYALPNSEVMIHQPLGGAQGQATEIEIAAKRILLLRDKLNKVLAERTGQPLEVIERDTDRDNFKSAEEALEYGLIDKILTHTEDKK
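FRET quenching reversal measured ClpP activation: 10 microg/mL B. subtilis ClpP at pH 8 with the FRET-FV decapeptide, read at 430 nm after 320 nm excitation. The 20-min minus 0-min signal was scaled between DMSO/no-enzyme wells and ADEP (5.8 microM final).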
TRPML1 blocker = qHTS for Inhibitors of the Human Mucolipin Transient Receptor Potential 1 (TRPML1); AID 624415, 2012; TRPML1-inducible cells, Ca2+ dye fluorescence, FDSS; hits give low values; inhibition of EC80 agonist-evoked calcium signal; actives 0.02% (n = 390,000); activity change, negative = inhibition, % (test concentration not listed); Mucolipin-1 (Homo sapiens), Q9GZU1; in the data active means activity change below about -50%; inconclusive means about -30% to -50%; inactive means above about -30%;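 note: stimulus is agonist 54-4 at its EC80 concentration; % is set by controls: 0 for no effect and ±100 for the full control effect; compound concentration not given in the record; the text of the record puts the active cut at -80%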
Target sequence (Q9GZU1 whole entry, looked up): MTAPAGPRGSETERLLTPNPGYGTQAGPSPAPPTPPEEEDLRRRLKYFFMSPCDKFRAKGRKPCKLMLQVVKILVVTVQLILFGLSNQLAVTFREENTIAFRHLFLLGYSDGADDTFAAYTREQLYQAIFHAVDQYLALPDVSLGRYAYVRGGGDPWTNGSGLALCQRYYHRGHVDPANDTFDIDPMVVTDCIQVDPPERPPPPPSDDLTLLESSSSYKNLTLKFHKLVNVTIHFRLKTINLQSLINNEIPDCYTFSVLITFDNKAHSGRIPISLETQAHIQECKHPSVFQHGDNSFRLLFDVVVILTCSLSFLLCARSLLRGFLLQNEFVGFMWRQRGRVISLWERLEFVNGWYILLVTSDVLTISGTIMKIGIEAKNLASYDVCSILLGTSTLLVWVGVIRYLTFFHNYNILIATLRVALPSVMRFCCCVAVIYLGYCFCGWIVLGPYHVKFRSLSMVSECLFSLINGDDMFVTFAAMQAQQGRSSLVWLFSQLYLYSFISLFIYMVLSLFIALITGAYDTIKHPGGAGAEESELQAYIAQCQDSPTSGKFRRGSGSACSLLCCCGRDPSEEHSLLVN
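Calcium fluorescence in TRPML1-DL cells induced overnight with Tet: a 110 s read after compound pin addition, then a 110 s antagonist read after challenge with 54-4 at 4 uM final (EC80).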
TRPML1 agonist = qHTS for Agonists of the Human Mucolipin Transient Receptor Potential 1 (TRPML1); AID 624414, 2012; TRPML1-expressing cells, Ca2+ dye fluorescence, FDSS; host cell line not named in the record; reference of the full effect not given here; activation, % (no concentration beside the values); actives 0.12% (n = 410,000); in the data active = activation above about 50%; inconclusive = about 30% to 50%; inactive = below about 30%; note: 0% is about no effect; the text of the record puts the active cut at 80%
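Agonist activity was taken from a 110 s kinetic Ca2+ dye read on the FDSS after pinning compounds onto TRPML1-DL cells. The cells were seeded at 1,500/well with Tet inducer, incubated about 16 h, then dye-loaded at room temperature.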
gsp agonist = qHTS for Agonist of gsp, the Etiologic Mutation Responsible for Fibrous Dysplasia/McCune-Albright Syndrome: qHTS; gsp mutant cells, cAMP HTRF, 30 min; control for the full effect not named in the record; Potency, µM (titrated, usually from 76.9 µM), inactives show at the highest dose activation (cAMP increase), actives largely listed as activators; actives 0.13% (n = 340,000); AID 624287, 2012; active = well fitted activation curve with a large enough effect; inconclusive = small, poorly fitted or top-dose-only effect, or another doubt; inactive = no such curve, though single readings can be large or run the other way; cell line not stated here;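 note: phosphodiesterase inhibitor Ro 20-1724 added with compounds to block cAMP breakdown; potency is the fitted concentration of half-maximal effect; nearly all actives have a fitted effect of over 60% in size; about a fifth of the inactives were tested at one dose only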
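Cells in DMEM/10% FBS with G418 were pretreated with compounds in DMSO plus […] (300 uM stock) for 30 min at 37C. cAMP was measured by HTRF (cAMP-d2 plus anti-cAMP antibody-K) after 30 min at room temperature.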
gsp antagonist = qHTS for Antagonists of gsp, the Etiologic Mutation Responsible for Fibrous Dysplasia/McCune-Albright Syndrome: qHTS. gsp-mutant cells, cAMP HTRF, 30 min; control for the full effect not named in the record. Potency, µM (highest dose often 76.9 µM), for inactives: at the highest dose activity change, negative = inhibition, most hits filed as inhibitors. actives 0.4% (n = 340,000). AID 624288, 2012; active = falling curve of any shape with a large fitted effect; inconclusive = falling curve, mostly with a smaller effect; inactive = flat or rising curve; cell line not stated here;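 note: intracellular cAMP measured with PDE inhibitor Ro 20-1724 present during compound exposure; potency is the fitted concentration of half-maximal effect; % is set by controls: 0 for no effect and ±100 for the full control effect; nearly all actives have a fitted effect of over 65% in size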
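G418-selected cells were plated in DMEM/10% FBS for 16-24 h at 37C, then treated with compounds plus the PDE inhibitor […] (300 uM solution added) for 30 min at 37C. Intracellular cAMP was measured by HTRF after 30 min lysis at room temperature.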
Menin MLL FP FL = qHTS Assay for Inhibitors Targeting the Menin-MLL Interaction in MLL Related Leukemias: Competition With Fluorescein Labeled MLL-derived Peptide; Fluorescence polarization, fluorescein-MLL peptide displacement from menin; FP activity change, % at 61.4 µM; 290,000 tested, under 10 active; AID 1766, 2009; inconclusive = falling polarisation curve, or a change in total fluorescence; inactive = total fluorescence flat and polarisation flat or rising; no compound was filed as active; the % refers to the polarisation; negative = inhibition;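 note: % of control where 0% means no effect; inhibitors lower the polarisation; unlabelled MLL peptide was the positive control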
The depositor's hits bear a star; ? = inconclusive; / = no result given; & = joins results of further samples; [ ] = another dose, or the depositor's remark. Outcome played no part in choosing rows; about 2.1% have a hit in one of these screens.

SMILES	ClpP mod	TRPML1 blocker	TRPML1 agonist	gsp agonist	gsp antagonist	Menin MLL FP FL
Cc1ccc2cc(CCNC(=O)CC(C)C)c(=O)[nH]c2c1	4.3%	0	-0.1	31%	1%	-2.4
CCOc1ccc(NC(=O)c2sc3nc4c(cc3c2N)CCCCCC4)cc1	4.4%	-12	-0.2	/	/	/
CCC(Oc1ccccc1)C(=O)Nc1ccccc1C(=O)N1CCCCC1 (centres undefined)	-1.6%	18	1.1	22%	-5%	/
O=C1C=C(c2ccccc2)CCC1	-2.4%	7	-0.8	/	5%	0.7&-0.6
CC1Sc2ccc(C(=O)Nc3ncccc3O)cc2NC1=O (centres undefined)	/	-13	0.3	-1%[15.4 µM]	-15%	/
CCN(CC)C(=O)C1=C(C)N(CCCOC)C(=O)C(CC(=O)NCC2CCCCC2)C1 (centres undefined)	0.9%	-6	-0.5	2%	/	/
CCCc1cc(=O)[nH]c(SCc2nc3ccc([N+](=O)[O-])cc3[nH]2)n1	/	-4	-0.5	-11%	-27%	1.8
Cc1ccsc1/C=N/n1cnnc1	/	-11	0.8	4%	-4%	1.8
COC(=O)CN(C(=S)Nc1ccccc1)C1CC(=O)N(c2ccc(OC)cc2)C1=O (centres undefined)	2.4%	16	0.5	-14%	-2%	-2.6
CCN(C(=O)Cn1c(=O)n(Cc2ccccc2)c(=O)c2c1c1cc(OC)ccc1n2C)c1ccccc1	?	-9	1.8	/	/	/
Cc1cccc(OCc2nnc(-c3ccc(F)cc3)o2)c1	-2.7%	-2	1.0	-31%	-4%	/
Cc1ccc2[nH]c3c(c2c1)CN(C(=O)CN1CCCc2ccccc21)CC3	1.0%	14	-0.4	1%	-6%	1.1
COc1cc(NC(=O)CCCOc2ccc(Cl)cc2Cl)c(C(=O)O)cc1OC	-16%	-6	0.4	-52%[inhibitor]	-26%	1.7
Cc1cc(N2CCOCC2)nc2ccc(NC(=S)N3CCN(Cc4ccccc4)CC3)cc12	/	-16	1.2	7%[15.4 µM]	-6%	-3.7
Clc1ccc(OCCn2c(-c3ccco3)nc3ccccc32)cc1	?	42	2.0	15%	-24%	-0.4
CN(c1ccccc1)S(=O)(=O)c1cccc(C(=O)NCCc2ccc(O)c(O)c2)c1	/	4	1.6	23%[15.4 µM]	-11%	-0.5
O=C1/C(=C/c2ccco2)CCc2ccccc21	0.6%	7	0.1	-41%[inhibitor]	-6%	15
CCc1nnc(NS(=O)(=O)c2ccc(NCc3cc(Br)ccc3O)cc2)s1	-2.8%	-8	1.5	-12%	1%	/
CCOC(=O)c1[nH]c(C)c(CCC(=O)Nc2cc(Cl)c(OC)cc2OC)c1C	-2.9%	-2	0.6	/	/	/
Cn1cc(C=CC(=O)O)c2nccnc21	-1.3%	7	0.0	15%	/	/
COc1cc2c(-c3ccc(O)cc3)nc3c(c(C)nn3-c3ccccc3)c2cc1OC	8.9µM*	-11	5.2	5%	-14%	11
Clc1cccc(-c2cc3nc(NCCOc4ccccc4)ccn3n2)c1	4.2%	27	-0.8	/	/	/
Cc1ccccc1OCc1nc2c3cnn(-c4cccc(F)c4)c3ncn2n1	-3.6%	10	0.8	/	/	/
Cc1cccc(CC2CC(=O)N(c3ccc(C)cc3Br)C2=O)c1 (centres undefined)	1.0%	9	0.6	?	12%	1.3
CN(C)C(=O)c1ccc(NC(=O)Cn2nc(-c3ccccc3)c3ccccc3c2=O)cc1	-1.2%	-2	-0.6	/	/	/
C=CCc1cccc2cc(C(=O)NC(C)(C)C)c(=O)oc12	-7.0%	15	-0.8	7%	4%	0.7
Cc1ccc(N2CCN(S(=O)(=O)c3c(C)noc3C)CC2C)cc1 (centres undefined)	0.9%	4	-0.7	-1%	-2%	-3.2
CCCCc1cc(=O)oc2cc(O)cc(O)c12	/	-9	-0.8	?	1%	6.1
COC(=O)CCCC1=CC2=CC(=O)C(C)(OC(=O)CCc3ccccc3)C(=O)C2=CO1 (centres undefined)	4.6%	-3	1.8	/	-9%	?
COc1ccc(-c2c3c(=O)n(C)c(=O)n(C)c3cn2-c2cccc(N)c2)cc1	?	4	0.4	/	/	/
Cc1c(Cc2ccccc2)sc(NC(=O)Cc2ccccc2)c1C(N)=O	-2.4%	25	-0.1	1%	14%	/
CCCc1cc(=O)[nH]c(SCCOC(=O)c2ccccc2)n1	1.5%	-9	2.4	-2%	?	3.9
Cc1cc(NC(=O)C2C3C(=O)N(Cc4ccc(Cl)cc4)C(C(=O)NC4CCCCC4)C34C=CC2(C)O4)no1 (centres undefined)	-2.4%	-2	0.5	?	4%	-0.1
Cc1ccc(C(=O)Nc2sc(Cc3ccc4c(c3)OCO4)c(C)c2C(N)=O)cc1	20%	-9	0.2	11%	10%	6.7
Cc1nc2ccccc2n1C(=O)c1cc(-c2ccc(Br)cc2)nc2ccccc12	-27%	0	-0.3	?	-4%	2.3
O=C(NC1CC1)C1CC(=O)N(c2cccc(Cl)c2)C1 (centres undefined)	1.5%	-2	-0.2	-2%	13%	/
Cc1cc(C)c(C#N)c(OCc2ccc(Cl)nc2)n1	-10%	2	-1.4	-4%[15.4 µM]	-16%	0.7
Cc1cccc(NC(=O)CSc2nnc(-c3cc(C)[nH]n3)n2N)c1	1.2%	-8	-0.9	-2%	1%	/
O=C(Nc1ccn(Cc2ccccc2F)n1)c1ccc(COc2cc(Cl)ccc2Cl)o1	?	2	3.8	24%	-9%	-0.9
CCCCNCc1cc(Br)c(OCC(=O)NCc2ccccc2)c(OC)c1	/	3	1.2	-5%[15.4 µM]	5%	2.5
N#Cc1c(-c2ccccc2)cc(-c2ccccc2)nc1Br	-6.6%	60	0.9	?	-10%	-3.3
COC(=O)c1ccc(COc2cc([N+](=O)[O-])cc3cccnc23)cc1	1.2%	43	0.4	?	-9%	-0.2
COc1ccc(CN2C(=NC(=O)C3CC3)SC3CS(=O)(=O)CC32)cc1OC (centres undefined)	-0.1%	1	1.3	?	1%	-3.8
COC(=O)c1ccc(COC(=O)CCc2nc(-c3ccccc3)c(-c3ccccc3)o2)cc1	32µM*	-4	0.2	?	-9%	2.8
CCOc1ccc(NC(=S)/C(=C(\[O-])c2ccc(C)c([N+](=O)[O-])c2)[n+]2ccccc2)cc1	-1.8%	13	0.5	12%	0%	-0.3
O=C1NC(=O)/C(=C/c2ccc(N3CCOCC3)o2)N1	-1.3%	12	-0.4	-7%[15.4 µM]	-6%	?
COc1cccc(/C=C/C(=O)OCC(=O)Nc2nnc(-c3ccccc3)o2)c1OC	/	0	0.2	27%[15.4 µM]	-21%	/
Cc1onc(-c2ccccc2)c1C(=O)OCC(=O)Nc1cccc(Cl)c1	0.4%	9	4.0	6%	?	/
C/C(=C\C(=O)Nc1nccs1)c1ccccc1	-1.3%	-2	0.5	12%	5%	-8.0
O=C(CSc1nnc(COc2ccccc2Cl)o1)NC(=O)NC1CCCC1	1.2%	0	0.4	-21%	-21%	-1.3
Cc1ccc(NC(=O)c2oc3ccccc3c2NC(=O)C23CC4CC(CC(C4)C2)C3)cc1	-24%	-18	-0.8	/	/	/
Cc1nc2ccccc2n1CC(=O)NCCN1CCOCC1	-4.4%	9	0.0	2%	9%	5.4
CCOC(=O)c1sc(N)c(C#N)c1CSc1nnc(C2CCCCC2)n1N	1.4%	-4	-0.6	-17%	4%	0.7
COc1ccccc1NC(=O)c1ccc(S(=O)(=O)N2CCC(C)CC2)cc1	/	-6	-0.2	-4%[15.4 µM]	/	-1.3
COc1cc(OC)cc(C(=O)NNC(=O)c2ccccc2Br)c1	0.5%	0	0.6	-4%[15.4 µM]	10%	0.4
O=C(C(Sc1ccccc1)c1ccccc1)N1CCN(c2ccccc2F)CC1 (centres undefined)	-1.8%	34	4.5	10%	-24%	-3.2
Cc1nn(-c2ccccc2)c(C)c1C(=O)OCC(=O)N(C)c1ccccc1	-0.8%	10	0.5	-45%[inhibitor]	-9%	/
COc1ccc(OC)c(NC(=O)CSc2nccn2-c2cc(C)cc(C)c2)c1	-0.9%	26	2.1	/	/	/
COC/C=C/C1=CC2=CC(=O)C(C)(OC(=O)c3cnc4ccccc4n3)C(=O)C2=CN1Cc1ccco1 (centres undefined)	1.0%	12	0.0	11%	-3%	-11[11.7 µM]
Cc1ccc2c(CN3CCN(S(=O)(=O)c4ccccc4C(F)(F)F)CC3)cc(=O)oc2c1C	-11%	40	1.1	-1%	-4%	/
Carrying on.
SMILES	ClpP mod	TRPML1 blocker	TRPML1 agonist	gsp agonist	gsp antagonist	Menin MLL FP FL
Cc1ccc(S(=O)(=O)N(C)C[C@H]2OCc3cnnn3CCCC(=O)N([C@@H](C)CO)C[C@H]2C)cc1	-2.7%	15	3.0	1%	/	/
CC(=O)NNc1ncnc2c1cnn2-c1ccc(C)c(Cl)c1	/	18	0.1	6%[15.4 µM]	-9%	-3.0
CC1(C)CC(=O)c2sc(NS(=O)(=O)c3ccc([N+](=O)[O-])cc3)nc2C1	-1.4%	11	-0.1	-6%	-2%	-2.9
O=C(/C=C/c1ccc(Cl)cc1Cl)Nc1ccncc1	0.8%	-2	1.2	-13%	-7%	1.6
Cc1ccc(-c2nc(NC(=O)CSc3nnc4scc(-c5ccccc5)n34)ns2)cc1	-2.0%	-7	1.8	-22%	-10%	1.4
Cc1ccc(NC(=O)CCNC(=O)c2ccc(Cl)cc2)nc1	-4.2%	3	1.9	19%	7%	1.5
COc1ccc(CCNC(=O)CN(Cc2ccc(Cl)cc2)S(C)(=O)=O)cc1OC	-1.5%	-10	0.0	-40%[inhibitor]	-17%	0.3
COc1cccc(/C=C/C(=O)OCC(=O)N2CCN(S(=O)(=O)c3ccc(Cl)cc3)CC2)c1	?	23	0.0	-11%[15.4 µM]	2%	/
O=C(N/N=C/c1ccc2ncccc2c1)c1ccco1	/	-23	0.8	3%[15.4 µM]	9%	1.9
COC(=O)c1cc2occc2n1Cc1ccc(F)cc1Cl	-5.1%	12	1.1	/	/	/

Another view of 2 compounds above.
> Cc1cc(N2CCOCC2)nc2ccc(NC(=S)N3CCN(Cc4ccccc4)CC3)cc12
  ClpP mod = / | TRPML1 blocker = -16 | TRPML1 agonist = 1.2 | gsp agonist = 7%[15.4 µM] | gsp antagonist = -6% | Menin MLL FP FL = -3.7
> Clc1ccc(OCCn2c(-c3ccco3)nc3ccccc32)cc1
  ClpP mod = ? | TRPML1 blocker = 42 | TRPML1 agonist = 2.0 | gsp agonist = 15% | gsp antagonist = -24% | Menin MLL FP FL = -0.4
